gsp antag – antagonists of gsp mutant (McCune-Albright syndrome); gsp-mutant cells, cAMP HTRF, 30 min; control for the full effect not named in the record; Potency, µM (highest dose often 76.9 µM), for inactives: top-dose activity change, negative = inhibition, usual class: inhibitors; 340,000 tested, 0.4% active; AID 624288; active = falling curve of any shape with a large fitted effect; inconclusive = falling curve, mostly with a smaller effect; inactive = flat or rising curve; cell line not stated here;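 note: intracellular cAMP measured with PDE inhibitor Ro 20-1724 present during compound exposure; potency is the fitted concentration of half-maximal effect; % is set by controls: 0 for no effect and ±100 for the full control effect; nearly all actives have a fitted effect of over 65% in size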
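Cells in G418 medium, seeded 16-24 h, 37C; buffer exchange to DPBS + 1 mM CaCl2, 0.5 mM MgCl2, 0.05% BSA; cpds in DMSO + […] (300 uM stock), 30 min 37C; HTRF cAMP detection.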
gsp ag – gsp mutant agonism; gsp mutant cells, cAMP HTRF, 30 min; control for the full effect not named in the record; Potency, µM (doses to about 76.9 µM), for the others: at the top dose activation (cAMP increase), most hits filed as activators; 340,000 tested, 0.13% active; active = well fitted activation curve with a large enough effect; inconclusive = small, poorly fitted or top-dose-only effect, or another doubt; inactive = no such curve, though single readings can be large or run the other way; cell line not stated here;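 note: phosphodiesterase inhibitor Ro 20-1724 added with compounds to block cAMP breakdown; potency is the fitted concentration of half-maximal effect; nearly all actives have a fitted effect of over 60% in size; about a fifth of the inactives were tested at one dose only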
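Cells stably selected in G418 were plated at 2000/well, grown 16-24 hr, then given compounds in DMSO with the PDE inhibitor […] (300 uM solution added) for 30 min at 37C; cAMP was read by HTRF.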
Menin-MLL FL inh – menin-MLL binding inhibition, fluorescein peptide; Fluorescence polarization, fluorescein-MLL peptide displacement from menin; FP activity change, % at 61.4 µM; 290,000 tested, under 10 active; inconclusive = falling polarisation curve, or a change in total fluorescence; inactive = total fluorescence flat and polarisation flat or rising; no compound was filed as active; the % refers to the polarisation; negative = inhibition;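 note: % of control where 0% means no effect; inhibitors lower the polarisation; unlabelled MLL peptide was the positive control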
Sfp inh – blocks B. subtilis Sfp PPTase activity; Biochemical Sfp PPTase activity, qHTS; 310,000 tested, 3.5% active; Q9F4F7; AID 1490; Potency, µM, without a hit: max response, negative = inhibition, most hits filed as inhibitors; active = well fitted inhibition curve with a large enough effect; inconclusive = small, poorly fitted or top-dose-only effect, or another doubt; inactive = no such curve, though single readings can be large or run the other way;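 note: the enzyme is Sfp with the accession as filed and its product quenches rhodamine fluorescence; potency is the fitted concentration of half-maximal effect; 0% = enzyme reaction without inhibitor and -100% = no enzyme wells; top concentration of the series not given in the record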
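Compounds were incubated with enzyme (final 15 nM) for 15 min at room temperature before substrate addition started the reaction. Fluorescence at 525 nm excitation, 598 nm emission was recorded immediately and after 30 minutes.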
TRPV1 PAM – enhances activation of the human vanilloid receptor TRPV1; potentiation, % at 8.33 µM; AID 540277; 320,000 tested, 0.02% active; Q8NER1; TRPV1-expressing cells, Fluo-8 calcium influx, capsaicin EC20 potentiation; host cell line not named in the record; control for the full effect not named in the record; active means potentiation above 80%; inconclusive means 30% to 80%; inactive means below 30%; note: 0% is about no effect
Target sequence (Q8NER1 whole entry, looked up): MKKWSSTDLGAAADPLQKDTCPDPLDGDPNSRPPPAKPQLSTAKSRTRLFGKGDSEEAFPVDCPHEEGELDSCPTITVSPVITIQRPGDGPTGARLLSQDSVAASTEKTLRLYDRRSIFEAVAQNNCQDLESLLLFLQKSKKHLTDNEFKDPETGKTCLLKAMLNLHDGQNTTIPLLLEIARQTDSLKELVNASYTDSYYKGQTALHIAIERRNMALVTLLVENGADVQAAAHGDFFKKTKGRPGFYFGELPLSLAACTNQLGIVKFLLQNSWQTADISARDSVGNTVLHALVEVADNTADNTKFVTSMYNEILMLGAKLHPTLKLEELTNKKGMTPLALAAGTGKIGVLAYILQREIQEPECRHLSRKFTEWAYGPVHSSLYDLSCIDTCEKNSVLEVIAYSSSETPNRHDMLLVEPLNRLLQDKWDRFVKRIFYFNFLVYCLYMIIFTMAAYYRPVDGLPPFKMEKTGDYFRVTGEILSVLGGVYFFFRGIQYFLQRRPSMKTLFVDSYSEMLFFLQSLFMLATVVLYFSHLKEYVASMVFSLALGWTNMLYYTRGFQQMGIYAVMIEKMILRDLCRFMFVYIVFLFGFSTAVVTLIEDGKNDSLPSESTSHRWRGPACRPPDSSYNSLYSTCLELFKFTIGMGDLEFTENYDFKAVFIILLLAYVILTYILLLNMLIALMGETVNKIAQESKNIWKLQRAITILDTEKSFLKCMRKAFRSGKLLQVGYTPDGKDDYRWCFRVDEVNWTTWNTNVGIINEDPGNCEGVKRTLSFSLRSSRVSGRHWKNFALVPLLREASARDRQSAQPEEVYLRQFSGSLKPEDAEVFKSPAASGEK
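Cells expressing TRPV1 were dye-loaded with Fluo-8 and read kinetically: 10 s baseline, 3 min after compound (agonist portion), then 2 min after EC20 capsaicin (allosteric enhancer portion). Calcium-bound dye fluorescence at 480/520 nm.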
CtBP-E1A blk – CtBP/E1A binding inhibition | AlphaScreen GST-E1A/His-CtBP binding, 1536-well; stronger effect = lower value; control for the full effect not named in the record | activity change, % (test concentration not listed) | 340,000 tested, 0.49% active | AID 651724; in the data active means activity change below about -65%; inconclusive means about -30% to -65%; inactive means above about -30%; note: % is set by controls: 0 for no effect and ±100 for the full control effect; compound concentration not given in the record
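AlphaScreen with 125 nM GST-E1A and 125 nM His-CtBP (5X stocks) in Tris pH 8.0, 300 mM NaCl, BSA, Tween 20, TCEP. Compounds preincubated 2 h at 37 deg C, then glutathione donor/nickel acceptor beads added for 1 h at 37 deg C in dark.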
ClpP mod – qHTS Assay for Activators of ClpP; Potency, µM (titrated, usually from 57.5 µM), inactives show at the top dose activity change, negative = active; ATP-dependent Clp protease proteolytic subunit (Bacillus subtilis (strain 168)), P80244; 340,000 tested, 1.9% active; purified B. subtilis ClpP, FRET peptide cleavage, 20 min; active = well fitted falling curve with a large enough effect; inconclusive = small, poorly fitted or top-dose-only effect; inactive = no such curve, though single readings can be large or run the other way; note: potency is the fitted concentration of half-maximal effect; the source files actives as falling curves though it sought activators and does not explain the sign; nearly all actives have a fitted effect of over 65% in size; many hits overshoot -100%
Target sequence (P80244 whole entry, looked up): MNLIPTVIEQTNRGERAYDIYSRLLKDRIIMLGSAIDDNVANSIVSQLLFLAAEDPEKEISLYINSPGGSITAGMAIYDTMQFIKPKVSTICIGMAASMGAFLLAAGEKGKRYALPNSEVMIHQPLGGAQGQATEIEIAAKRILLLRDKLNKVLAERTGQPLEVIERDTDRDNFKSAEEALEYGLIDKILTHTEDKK
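Buffer: 100 mM Tris/HCl pH8, 100 mM KCl, 0.05% low protease BSA, 2.5% glycerol, 0.01% Tween-20. ClpP 10 microg/mL final; 20 min RT; delta FRET normalized to ADEP and DMSO controls.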
* hit, by the source's call; ? = inconclusive; . = not tested or not shown; [ ] = remark or other dose.

SMILES	gsp antag	gsp ag	Menin-MLL FL inh	Sfp inh	TRPV1 PAM	CtBP-E1A blk	ClpP mod
CSc1ccccc1NC(=O)C1CC(c2ccccc2O)=NO1 (centres undefined)	-1%	-17%	-0.3	?	4	6	0.1%
COc1ccccc1-n1cnnc1SCC(=O)NCc1cccs1	0%	-4%	0.9	17%	-31	5	-2.0%
COc1ccc(S(=O)(=O)N(C(=O)c2ccco2)c2cc3sc(=O)oc3c3ccccc23)cc1	11%	0%	2.6	7.9µM*	-1	-27	-3.8%
COc1cc(C2C(N3C(=O)c4ccccc4C3=O)C(=O)N2c2cccc(C)c2)cc(OC)c1OC (centres undefined)	.	.	-1.1	6%	-3	.	.
Cc1ccc(S(=O)(=O)NCC2CCC(C(=O)N3CCOCC3)CC2)cc1 (centres undefined)	8%	-44%[inhibitor]	-12	10%	-6	.	0.0%
Cc1cc([N+](=O)[O-])ccc1NC(=O)CSc1nnc(C)n1C	5%	5%	-2.5	11%	-5	-7	.
COC(CNC(=O)C(=O)NCC1OCCN1S(=O)(=O)c1ccccc1)OC (centres undefined)	6%	0%[15.4 µM]	.	.	.	21	1.4%
COc1cc(/C=N/NC(=O)c2cc(-c3ccccc3)nc3ccccc23)cc(OC)c1O	-3%	-14%	2.2	10%	1	.	1.5%

SMILES	gsp antag	gsp ag	Menin-MLL FL inh	Sfp inh	TRPV1 PAM	CtBP-E1A blk	ClpP mod
CCOC(=O)Cn1c(=O)oc2cc(S(=O)(=O)N(CCN(C)C)Cc3ccccc3)ccc21	17%	?	0.8	9%	-2	-1	0.4%
Fc1ccc(-c2csc(NC(=S)Nc3ccccc3)n2)cc1	-5%	6%	1.7	-11%	20	-1	0.0%
CC(C)NC(=O)NC(=O)COC(=O)/C=C/c1ccc2c(c1)OCO2	4%	21%	-1.8	15%	-8	-8	.
c1ccc(COc2ccc(OCCN3CCCC3)cc2)cc1	11%	15%	1.9	-5%	4	-11	-3.6%
O=C(C[C@H]1C/C=C\C[C@H](NC(=O)OCC2c3ccccc3-c3ccccc32)C(=O)OC[C@@H]2CCCN2C1=O)NCCO	10%	.	.	.	.	9	-3.4%
O=C1/C(=C/c2ccccn2)SC(=S)N1N1CCOCC1	10%	-4%[15.4 µM]	4.5	?	-5	-2	0.3%
O=C(O)CC1(CC(=O)O)Nc2ccccc2SC1=O	5%	?	.	.	.	13	.
COc1cccc(C(=O)Nc2nnc(-c3ccc(Cl)cc3)o2)c1	-9%	18%	2.7	22%	-9	-4	-0.2%

SMILES	gsp antag	gsp ag	Menin-MLL FL inh	Sfp inh	TRPV1 PAM	CtBP-E1A blk	ClpP mod
CCCNC(=O)Nc1cc(OC)c(OC)cc1Cc1nccc2cc(OC)c(OC)cc12	6%	-41%[inhibitor]	-12	-11%	1	-16	-2.9%
Cc1cc(=O)n2[nH]c(=O)c(N=Nc3ccccc3)c2[nH]1	?	-2%	1.6	-2%	6	-14	1.4%
CN(c1ccccc1C(=O)N1CCN(c2ccccc2)CC1)S(C)(=O)=O	12%	-1%	1.0	6%	5	2	-4.5%
O=C(N/N=C/C=C\c1ccco1)c1cccs1	-9%	-10%	?	22µM*	-22	-1	.
O=C(NCc1n[nH]c(=S)n1-c1cccc(C(F)(F)F)c1)c1ccco1	1%	7%[15.4 µM]	-0.2	-13%	3	2	.
O=C(OCc1ccccc1F)c1cc2ccccc2cc1O	-4%	?	2.4	2%	-9	37	.
C#CCOCCOCCOCCNc1nc(N2CCN(C(=O)[C@H](CCCCN)n3cc([C@@H](N)[C@H](C)CC)nn3)CC2)nc(N2CCN(C(=O)[C@H](CCC(=O)O)n3cc([C@@H](N)CCSC)nn3)CC2)n1	6%	.	.	.	.	-11	-0.5%
Cc1ccc(S(=O)(=O)N2CCOCC2)c(C)c1NS(C)(=O)=O	-4%	-7%[15.4 µM]	3.7	9%	3	0	2.5%

SMILES	gsp antag	gsp ag	Menin-MLL FL inh	Sfp inh	TRPV1 PAM	CtBP-E1A blk	ClpP mod
COc1ccc(C(=O)N(c2ccccn2)C2CCCCC2)c(OC)c1	1%	-4%[15.4 µM]	-3.8	6%	?	14	-0.6%
CCCCC(=O)Nc1ccccc1C#N	8%	-2%[15.4 µM]	1.7	2%	8	9	1.6%
COc1ccccc1N1CCN(C(=O)c2cc(C)on2)CC1	5%	-4%	.	9%	-5	0	.
Cc1cc(C)c(S(=O)(=O)NCCCn2ccnc2)c(C)c1	8%	-21%	-1.3	2%	?	6	0.8%
CCOC(=O)CSc1nc2sc3c(c2c(=O)[nH]1)CC(C)(C)OC3	-33%	8%	-0.4	-10%	21	3	-3.1%
CC(C)N(C(=O)CSc1nnc(Cn2nnc3ccccc32)n1C)C(C)C	-9%	-1%	2.8	0%	-2	1	0.1%
CN(CC(=O)N1CCN(c2ccccn2)CC1)S(=O)(=O)c1cccc2nsnc12	1%	-11%	1.9	5%	?	4	-5.2%
Cc1ccc(N(CC(=O)NCC2CCCO2)C(=O)CCC(=O)Nc2ccccn2)cc1 (centres undefined)	10%	18%[15.4 µM]	-1.6	19%	-16	1	.

SMILES	gsp antag	gsp ag	Menin-MLL FL inh	Sfp inh	TRPV1 PAM	CtBP-E1A blk	ClpP mod
CCC(C)(C)NC(=O)Cn1c(-c2ccccc2)cc(C(C)=O)c1C	-9%	-48%[inhibitor]	-0.2	-6%	9	.	-1.0%
CCc1ccc(NC(=S)Nc2ccc(S(=O)(=O)Nc3ncccn3)cc2)cc1	7%	-10%	4.9	-2%	8	-8	-1.8%
CC(C)(C)NC(=O)COc1ccc(CNc2ncn[nH]2)cc1	-36%	29%[15.4 µM]	3.8	11%	3	-3	.
COc1ccccc1-n1c(-c2cc(-c3ccc(F)cc3)n[nH]2)n[nH]c1=S	.	-20%[15.4 µM]	-0.5	10µM*	8	-2	.
CC(C)(C)C1CCC(C(=O)OCC(=O)N2CCN(C(=O)c3ccco3)CC2)CC1 (centres undefined)	7%	-15%[15.4 µM]	-0.3	23%	-9	5	.
Oc1ccc(-c2nccc(-c3ccccn3)n2)cc1	14%	24%	0.4	-21%	29	-4	-0.4%
Cc1ccccc1-n1c(SCC(=O)N(C)C2CCS(=O)(=O)C2)nc2ccccc2c1=O (centres undefined)	-32%	9%[15.4 µM]	-0.3	-10%	-8	8	-1.4%
COc1ccc(C2C=C(c3cccs3)Nc3nc(CCCO)nn32)cc1 (centres undefined)	.	.	?	16µM*	-3	.	.

A second format for part of the listing above.
CC(C)(C)NC(=O)COc1ccc(CNc2ncn[nH]2)cc1
  gsp antag: -36%
  gsp ag: 29%[15.4 µM]
  Menin-MLL FL inh: 3.8
  Sfp inh: 11%
  TRPV1 PAM: 3
  CtBP-E1A blk: -3
  ClpP mod: .

CCc1ccc(NC(=S)Nc2ccc(S(=O)(=O)Nc3ncccn3)cc2)cc1
  gsp antag: 7%
  gsp ag: -10%
  Menin-MLL FL inh: 4.9
  Sfp inh: -2%
  TRPV1 PAM: 8
  CtBP-E1A blk: -8
  ClpP mod: -1.8%

COc1ccccc1-n1c(-c2cc(-c3ccc(F)cc3)n[nH]2)n[nH]c1=S
  gsp antag: .
  gsp ag: -20%[15.4 µM]
  Menin-MLL FL inh: -0.5
  Sfp inh: 10µM*
  TRPV1 PAM: 8
  CtBP-E1A blk: -2
  ClpP mod: .

CC(C)(C)C1CCC(C(=O)OCC(=O)N2CCN(C(=O)c3ccco3)CC2)CC1 (centres undefined)
  gsp antag: 7%
  gsp ag: -15%[15.4 µM]
  Menin-MLL FL inh: -0.3
  Sfp inh: 23%
  TRPV1 PAM: -9
  CtBP-E1A blk: 5
  ClpP mod: .

Continuation:
SMILES	gsp antag	gsp ag	Menin-MLL FL inh	Sfp inh	TRPV1 PAM	CtBP-E1A blk	ClpP mod
CCOc1ccccc1N1CCN(Cc2cc3c(cc2[N+](=O)[O-])OCO3)CC1	-3%	-82%[inhibitor]	1.6	-19%	25	-16	.
Nc1ccc(-c2nc3c(ccc4ccccc43)[nH]2)cc1	-29%	20%	5.1	-9%	-13	.	3.6%
Cc1c(NC(=O)c2ccc(Cl)c(S(=O)(=O)N3CCOCC3)c2)c(=O)n(-c2ccccc2)n1C	-11%	-14%	-0.1	3%	-17	2	0.7%
COc1cccc(NC(=O)C2Cc3ccccc3CN2C(=O)c2ccco2)c1 (centres undefined)	-1%	4%	-0.3	-15%	8	3	.
CCOC(=O)CNS(=O)(=O)c1c(C)noc1C	9%	-27%	4.5	22%	9	3	-0.8%
CCOCCCNC(=S)N(CCO)Cc1cc2cc3c(cc2[nH]c1=O)OCCO3	-5%	-4%	-2.4	56µM*	19	-2	4.3%
O=C(CN1CCCCC1)Nc1ccc(S(=O)(=O)N2CCCCCC2)cc1	3%	-30%	1.1	15%	13	7	-1.5%
Nn1c(SCC(=O)Nc2ccc3c(c2)OCCO3)nnc1C(F)(F)F	-1%	4%	0.5	7%	9	2	-0.5%

SMILES	gsp antag	gsp ag	Menin-MLL FL inh	Sfp inh	TRPV1 PAM	CtBP-E1A blk	ClpP mod
COc1ccc(NC2=CC(c3ccc(OC)c(OC)c3)N(c3ccc(OC)cc3)C2=O)cc1 (centres undefined)	-17%	-2%	4.9	-19%	4	-26	?
COC(=O)CCc1c[nH]c2ccc([N+](=O)[O-])cc12	-11%	?	.	.	.	-8	.
S=C(Nc1cc(Cl)ccc1Oc1ccccc1)N1CCN(c2ccccn2)CC1	?	-2%[15.4 µM]	3.8	15%	-2	-10	.
COc1cccc(/C=N/Nc2nc3ccccc3[nH]2)c1O	-1%	-59%[inhibitor]	0.2	-9%	-13	.	-4.9%
CC(=O)Oc1c(Cl)cc(Cl)cc1/C=C/c1ccc2ccccc2n1	-6%	7%	?	?	-7	33	?
COc1cccc(CNS(=O)(=O)c2c(C(=O)N3CCCCCC3)c(C)n(C)c2C)c1	-8%	?	1.0	21%	9	2	2.0%

From PubChem BioAssay
